Screening results (PubChem BioAssay)
E coli growth: blocks Escherichia coli growth; hit rate 0.21% among 330,000; OD600, 23 h; active compounds read low; OD600 absorbance (no concentration beside the values); AID 1053175;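 active = OD600 absorbance below the run mean of sample wells minus 3.6 SD, in any replicate, cut at about 0.56 in these data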;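 also: stock transfer was 300 nL into about 60 µL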
UCH37 inh: inhibitors of human deubiquitinating enzyme UCH37; Q9Y5K5; purified proteasome/UCH37, Ub-AMC cleavage fluorescence; inhibition, % (test concentration not listed); hit rate 0.33% among 330,000;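 active = mean of two replicates above 20%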;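 also: 0% = compound-free wells with enzyme and 100% = wells lacking proteasome; stock transfer was 100 nL into about 20 µL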
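Material: Human UCH37 enzyme supplied as purified proteasome complex | Schedule: 30 min preincubation with enzyme, 25 min cleavage at room temperature | Detection: AMC fluorescence 355/460 nm | Measure: % inhibition of Ub-AMC cleavage fluorescence | Controls: Wells without proteasome as full block, compound-free enzyme plus substrate as uninhibited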
rRNA inh HTS: inhibits bacterial ribosomal RNA function over humanized ribosomes; GFP signal change (wild-type ribosome), % (concentration not given with the values); E. coli WT GFP vs humanized-ribosome RFP mutants, fluorescence, 24 h; active compounds read low; DMSO median 0, no signal -100; AID 720706; hit rate 1.6% among 350,000;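 active = significant combined selectivity score with lowered wild-type GFP, culture density cut under 30%, mutant RFP and density less affected; inactive = any of these conditions unmet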; also: one replicate is shown; some compounds called inactive have numbers as strong as hits
FGF22 binding: binders of recombinant human FGF22 by thermal shift | SYPRO orange fluorescence; percent of sucrose octasulfate shift, DMSO zero | hit rate 1.5% among 340,000 | calls only at 9.99 µM | Q9HCT0 | AID 651658;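 active = melting point raised past a set limit in the mean and every replicate; three in four hits are not shown here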
Target sequence (Q9HCT0 whole entry, looked up): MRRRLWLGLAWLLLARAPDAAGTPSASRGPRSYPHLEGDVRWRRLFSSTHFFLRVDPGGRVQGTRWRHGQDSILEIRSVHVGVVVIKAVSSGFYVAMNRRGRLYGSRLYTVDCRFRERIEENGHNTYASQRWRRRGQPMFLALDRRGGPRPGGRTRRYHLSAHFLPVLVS
Beta2AR agonist: human beta-2 adrenergic receptor agonism by FAP; Am2.2-beta2AR cells, FAP receptor internalization, flow cytometry; reference of the scale not given here; response, % (test concentration not listed); hit rate 0.43% among 340,000;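 active = response above a set limit, near 3 SD of response in nonfluorescent compounds, cut at about 42% in these data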;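 also: stock transfer was 100 nL into about 11 µL; a reference agonist was the positive control; negative values mostly stem from fluorescent compounds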
Target sequence (P07550 whole entry, looked up): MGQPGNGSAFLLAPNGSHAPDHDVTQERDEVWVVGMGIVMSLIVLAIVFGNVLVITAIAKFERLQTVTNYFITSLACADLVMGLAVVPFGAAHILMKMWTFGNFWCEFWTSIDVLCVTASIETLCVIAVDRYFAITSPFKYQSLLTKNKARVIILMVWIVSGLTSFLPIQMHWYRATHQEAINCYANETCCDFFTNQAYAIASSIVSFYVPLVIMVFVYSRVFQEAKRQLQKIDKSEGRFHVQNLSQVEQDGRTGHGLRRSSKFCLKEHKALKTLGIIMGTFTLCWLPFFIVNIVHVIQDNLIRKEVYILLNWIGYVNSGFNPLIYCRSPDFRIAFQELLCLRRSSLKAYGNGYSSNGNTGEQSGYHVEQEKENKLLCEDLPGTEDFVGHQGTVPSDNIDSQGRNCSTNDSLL
HNF4A DNA FP: change in binding of human HNF4 alpha to DNA; P41235; HNF4a-FITC DNA binding, fluorescence polarization, 1 h; activity change, % at 10 µM; hit rate 0.3% among 360,000; AID 1224865; in the data active = activity change above about 30%, passing the limit was not always enough;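 also: controls were the assay level and a saturating level of protein; the project sought stronger binding though the title names inhibitors; some compounds called inactive have numbers as strong as hits; positive values seem to mean higher polarization but the record does not say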
Target sequence (P41235 whole entry, looked up): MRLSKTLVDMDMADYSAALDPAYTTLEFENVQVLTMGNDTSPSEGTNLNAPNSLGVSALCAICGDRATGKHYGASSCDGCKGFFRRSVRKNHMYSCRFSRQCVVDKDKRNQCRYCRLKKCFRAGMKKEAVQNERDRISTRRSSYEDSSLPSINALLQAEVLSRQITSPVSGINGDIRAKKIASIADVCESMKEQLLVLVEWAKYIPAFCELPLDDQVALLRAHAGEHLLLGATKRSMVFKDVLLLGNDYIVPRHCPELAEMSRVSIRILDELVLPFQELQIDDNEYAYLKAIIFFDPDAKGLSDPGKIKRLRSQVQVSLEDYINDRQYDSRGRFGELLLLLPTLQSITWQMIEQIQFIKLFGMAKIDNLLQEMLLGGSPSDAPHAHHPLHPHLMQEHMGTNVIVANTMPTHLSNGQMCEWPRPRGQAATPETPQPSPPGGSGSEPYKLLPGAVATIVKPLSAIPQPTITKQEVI
ALR H2O2 inh: blocks human ALR sulfhydryl oxidase activity. purified ALR, DTT oxidation, H2O2 HRP-luminol luminescence. hit rate 3.8% among 290,000. P55789. inhibition, % (no concentration beside the values);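 active = mean and each replicate at 75% or more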;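 also: stock transfer was 7.5 nL into about 7.5 µL; 0% = neutral wells and 100% = wells with inactivated enzyme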
rRNA inh HTS OD600: recorded beside rRNA inh HTS, whose call it bears; OD600 change, %; measured here: OD600 growth;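 optical density of the mix in the first replicate; 0 = DMSO median and -100 = no signal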
rRNA inh HTS RFP: also measured in rRNA inh HTS; calls as there; RFP signal change, %; measured here: RFP humanized mutant strains;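 first replicate; 0 = DMSO median and -100 = no signal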
* marks the source's active call; other numbers are inactive results; i = inactive; / = not tested or not shown. These rows are one share of the data; rates above refer to the full screens.

compound | E coli growth | UCH37 inh | rRNA inh HTS | rRNA inh HTS OD600 | rRNA inh HTS RFP | FGF22 binding | Beta2AR agonist | HNF4A DNA FP | ALR H2O2 inh
COc1ccc(C(=O)NC(=C(Cl)Cl)S(=O)(=O)c2ccc(C)cc2)cc1 | 0.73 | 2.6 | 2 | -3 | 4.7 | i | 9 | -3.3 | 1
COc1ccc(S(=O)(=O)N2CCCCC2)cc1NC(=O)CSc1nccn1C | 0.68 | 2.6 | 7 | 1 | 1.4 | / | -4 | 1.1 | -7
Cc1ccnc(N2C(=O)c3ccccc3C2O)c1 (configuration not stated) | 0.74 | -3.9 | 5 | 0 | -0.9 | i | 19 | -2.2 | -2
CCC/C(C(=O)NCCO)=C1/c2ccccc2C(=O)N1c1ccccc1 | / | 3.1 | 13 | 15 | -1.6 | i | 1 | 1.3 | 3
Cc1ccc(S(=O)(=O)N2CCC(C(=O)N3CCc4ccccc43)CC2)cc1C | 0.7 | 3.3 | 21 | 14 | 1.8 | i | -7 | 0.4 | /
COc1ccccc1C(=O)C1CCCN(C(=O)c2ccc3c(c2)OCCO3)C1 (configuration not stated) | 0.7 | 6.2 | -16 | -18 | -0.1 | i | 0 | 2.2 | 46
CCN1CCN(C(=O)c2cc(=O)c3cc(C)ccc3o2)CC1 | 0.69 | -0.6 | 7 | 14 | -1.8 | i | -4 | -2.0 | 0
Clc1ccc(Br)cc1-c1nc(-c2ccncc2)no1 | 0.73 | 0.7 | / | / | / | / | -12 | 5.2 | /
COc1ccccc1C(c1nnnn1C(C)(C)C)N1CCN(C(=O)c2ccco2)CC1 (configuration not stated) | 0.73 | 3.1 | / | / | / | / | -3 | 3.7 | /
COC(=O)C(CC(=O)O)NCc1ccco1 (configuration not stated) | 0.73 | 5.1 | 12 | 4 | -3.7 | i | 0 | -0.5 | 2
C/C(=N\NC(=O)CCc1c[nH]c2ccccc12)c1cccc([N+](=O)[O-])c1 | / | / | / | / | / | / | -6 | 3.1 | -5
CSc1ccccc1OCc1cc(C(=O)N(C)Cc2ccc(C)o2)no1 | 0.67 | 0.0 | -22 | -38 | -6.7 | i | 8 | -0.3 | 4
O=S(=O)(Cc1ccccc1)N1CCC(c2nc(-c3cccs3)no2)CC1 | 0.72 | 1.5 | -16 | -7 | -2.5 | i | 7 | 2.9 | 0
CCOC(=O)C1(CCOc2ccccc2)CCN(Cc2ccc3nonc3c2)CC1 | 0.66 | 1.3 | -19 | -25 | 1.3 | i | 1 | 4.4 | -3
COc1ccc(NC(=O)c2ccc(Cl)c(S(=O)(=O)N3CCc4ccccc4C3)c2)cn1 | 0.74 | 3.0 | -14 | -20 | 13 | / | 15 | -5.0 | -32
Cn1c(N)c(C(=O)COC(=O)CSc2cccc3cccc(Cl)c23)c(=O)n(C)c1=O | 0.71 | 4.2 | -2 | 11 | 4.0 | / | 14 | -0.5 | -17
O=C(COc1ncnc2scc(-c3ccc(F)cc3)c12)NCc1ccco1 | 0.76 | 0.8 | / | / | / | / | 7 | 0.5 | 6
O=C(COC(=O)c1cc([N+](=O)[O-])ccc1Cl)NC1CCCC1 | 0.71 | 2.2 | 11 | 16 | 4.4 | i | -4 | 1.2 | -3
COc1ccc(C(CNC(=O)c2ccc(-c3ccccc3Cl)o2)N2CCOCC2)cc1 (configuration not stated) | 0.69 | 4.1 | -42 | -62 | -3.6 | i | 3 | 0.8 | 0
CCc1nnc(NC(=O)CCC(=O)N2CCN(Cc3ccccc3)CC2)s1 | 0.69 | 3.3 | / | / | / | / | -11 | -0.6 | 5
CSc1ccc(OCC(=O)Nc2ccc(N3CCOCC3)c(Cl)c2)cc1 | 0.7 | 1.5 | -24 | -40 | 5.2 | i | 1 | 4.3 | /
CN1c2ccccc2C(=O)C(=C2SCCCS2)S1(=O)=O | 0.66 | 6.8 | -5 | -9 | -3.2 | i | -1 | 3.0 | 3
OCCC1CN(CC2CCCCC2)CCN1CC1CCCCC1 (configuration not stated) | 0.64 | 2.0 | 4 | -4 | 5.9 | i | 6 | 1.7 | 1
CCCCCc1c(-c2ccc(Br)cc2)ncn1CCc1ccccc1OC | / | / | 2 | -7 | 12 | i | / | 2.5 | /
CCCCNC(=O)C1(C)CCCCN1C(=O)c1ccno1 (configuration not stated) | / | / | 6 | 7 | -3.4 | i | / | 3.5 | /
COc1cc(Cl)c(C)cc1NC(=O)COC(=O)c1cnc(C)cn1 | 0.7 | -1.1 | / | / | / | / | 0 | 2.6 | -2
CC(C)COC(=O)N(C)c1ccc(C(O)(C(F)(F)F)C(F)(F)F)cc1 | 0.79 | 1.5 | / | / | / | / | 1 | 1.0 | -1
Cc1ccccc1CC(=O)N1CCCc2ccccc21 | 0.69 | 4.4 | -11 | -11 | 1.4 | i | 7 | 4.3 | -12
CC1CCCCN1C(=O)C1CCN(c2nc(-c3ccccc3)nc3c2CCC3)CC1 (configuration not stated) | 0.62 | 1.0 | -7 | -23 | -1.1 | i | -5 | 1.2 | -7
O=C(Cn1c(C(=O)N2CCN(C3CCCCC3)CC2)cc2sccc21)c1ccccc1 | 0.72 | 6.8 | / | / | / | / | -17 | -2.9 | -13
O=C1CCCc2nc(NCc3ccco3)ncc21 | 0.74 | 0.8 | / | / | / | / | -7 | -2.3 | -7
COc1ccc(CN(C)CC(=O)Nc2ccccc2-c2ccccc2)c(OC)c1 | 0.67 | 1.0 | -39 | -55 | -5.6 | i | -2 | 8.3 | /
c1ccc2c(c1)N1CCN=C1N2CCN1CCCCC1 | 0.74 | -0.4 | / | / | / | / | -7 | -1.0 | 19
COc1cc2ccccc2cc1C(=O)NC(=S)Nc1nnn(C)n1 | 0.72 | 4.3 | / | / | / | / | -4 | 2.4 | -6
CCOC(=O)CCCC(=O)N1CCOCCOCCOCC1 | 0.7 | 5.2 | 7 | 8 | -1.4 | i | -2 | -5.5 | 4
COc1ccc(N2C(=O)C(Cc3ccccc3)NC2=S)cc1 (configuration not stated) | 0.69 | 5.4 | 12 | 7 | -2.5 | i | 0 | 5.7 | -2
Cc1cc(C)c(NC(=O)C2CC3CCC2C3)c(C)c1 (configuration not stated) | 0.65 | 0.0 | / | / | / | / | 7 | 0.1 | -13
COc1ccc(OC)c2c(C)cc(N3CCN(C(=O)c4ccc(C)cc4)CC3)nc12 | 0.7 | -8.1 | -16 | -26 | -2.3 | i | 1 | -2.1 | 13
N#Cc1ccc(/C=N/NC(=O)c2ccccc2F)cc1 | / | / | / | / | / | i | 2 | 0.5 | -3
C=CCN(C(=O)c1ccc2c(c1)nnn2C)c1ccccc1 | 0.68 | 3.5 | 5 | 5 | 3.9 | i | -17 | 0.7 | 1

Later entries.
Value order – E coli growth, UCH37 inh, rRNA inh HTS, rRNA inh HTS OD600, rRNA inh HTS RFP, FGF22 binding, Beta2AR agonist, HNF4A DNA FP, ALR H2O2 inh
- CC1CCCCN1C(=O)CSc1nnc(-c2cccs2)o1 (configuration not stated)
→ 0.67, 1.3, 2, 13, 0.3, i, -15, -0.3, /
- COc1ccc(C2C(C#N)=C(N)Oc3n[nH]c(C)c32)cc1CN1CCN(c2ccc(F)cc2)CC1 (configuration not stated)
→ 0.69, 0.3, /, /, /, /, 5, 0.7, 20
- COc1cc(OC)c2c(=O)cc(-c3cccnc3)oc2c1
→ /, /, -7, -7, -10, i, -12, -2.8, -19
- CCN(CC)c1ccc(C2CC(=O)Nc3cc(OC)c(OC)cc32)cc1 (configuration not stated)
→ 0.75, 5.9, /, /, /, /, -3, -1.4, 98*
- CCOc1ccccc1-c1nc(-c2cc3ccc(C)cc3[nH]c2=O)no1
→ 0.69, -29, /, /, /, /, -16, 3.7, 0
- Cc1cccc(NC(=O)c2ccccc2Br)n1
→ 0.73, 4.5, 3, 3, 3.4, i, 5, 4.8, 24
- COc1cccc(CNC(=O)C2CCN(S(=O)(=O)c3ccc4c(c3)OCCO4)CC2)c1
→ 0.72, 2.2, 0, 4, -1.2, i, 0, -0.8, -2
- COC(=O)c1ccc(CN2CCC(n3nccc3NC(=O)C3CC3)CC2)cc1
→ 0.73, 2.9, -1, 6, -1.2, i, 1, 2.7, -7
- Cc1ccc(Nc2nnc(SC3CCOC3=O)s2)c(C)c1 (configuration not stated)
→ 0.72, 4.0, /, /, /, /, -5, 0.0, 6
- COc1cccc(CNC(=O)C(C)n2ccc3cc(S(=O)(=O)N4CCCCCC4)ccc32)c1 (configuration not stated)
→ 0.71, 1.0, -6, -33, 1.5, i, 47*, 1.8, -6
- Cc1cc(C)c2nc(NC(=O)c3cccc(S(=O)(=O)N4CCc5ccccc54)c3)sc2c1
→ 0.68, -41, 10, 4, 5.9, i, 4, 8.3, -10
- O=C(c1ccc(NS(=O)(=O)c2cccc(F)c2)cc1)N1CCCC1
→ /, /, 1, -7, -0.6, i, 2, 0.9, -14
- CC(=O)NCCCc1nc2ccccc2n1Cc1ccc(C)cc1
→ 0.71, 0.5, /, /, /, /, -3, -0.9, -2
- Cc1ccc(S(=O)(=O)Nc2cccc(C(=O)N3CCN(c4ccccc4O)CC3)c2)cc1F
→ 0.7, 0.6, -4, -10, 5.4, i, 8, 0.9, 42
- Cc1ccc(CNC(=O)C2CCCN(c3cnccn3)C2)cc1 (configuration not stated)
→ 0.71, -9.2, -2, 6, -0.8, i, 0, 0.5, -2
- CCC(C(=O)Nc1ccccc1OC)n1c(C(=O)OC)cc2ccsc21 (configuration not stated)
→ 0.66, 2.4, /, /, /, /, -14, 3.8, -2
- CS(=O)(=O)N1CCN(c2ccnc3cc(Cl)ccc23)CC1
→ 0.67, 2.0, -16, -12, -0.5, i, -13, -3.4, -7
- CCc1nnc(NC(=O)CCC(=O)N2CCN(c3cc(Cl)ccc3C)CC2)s1
→ 0.68, 2.5, -13, -15, 1.2, i, -9, 2.8, -2
- CC(=O)Nc1ccc(S(=O)(=O)NC2=NCN(c3ccc([N+](=O)[O-])cc3)CN2)cc1
→ 0.68, 3.4, 11, 14, -1.3, i, 3, 6.0, -21
- CCCCCn1c(=O)[nH]c2cc(C(=O)N3CCN(c4ccccc4F)CC3)ccc2c1=O
→ 0.64, 2.8, -1, -2, -2.6, i, 36, -3.7, 0
- CCOc1cc(NC(=S)NCC2CCCO2)c(OCC)cc1NC(=O)c1ccccc1C (configuration not stated)
→ 0.67, 4.0, /, /, /, /, 8, 3.0, -83
- COc1cc2ccccc2cc1C(=O)N(CCN(C)C)c1nc2c(F)cc(F)cc2s1
→ 0.66, 5.0, -17, -50, 5.0, i, 6, 1.8, 0
- O=C(N/N=C/C(Cl)=C\c1ccccc1)c1cccs1
→ /, /, 8, 15, 0.3, i, 19, 0.6, -2
- CC(NC(=O)c1ccccc1)C(=O)N/N=C/c1ccco1 (configuration not stated)
→ /, /, 4, 6, -2.4, i, 4, 1.7, /
- COC(=O)C1=C(C(=O)OC)C2(OC1c1ccccc1C)C(=O)c1ccccc1C2=O (configuration not stated)
→ 0.75, -0.5, /, /, /, /, 1, -0.5, -2

Compound profiles, as listed above. Order of screens: E coli growth	UCH37 inh	rRNA inh HTS	rRNA inh HTS OD600	rRNA inh HTS RFP	FGF22 binding	Beta2AR agonist	HNF4A DNA FP	ALR H2O2 inh
`COC(=O)C1=C(C(=O)OC)C2(OC1c1ccccc1C)C(=O)c1ccccc1C2=O` (configuration not stated) as listed: 0.75	-0.5	/	/	/	/	1	-0.5	-2
`O=C(N/N=C/C(Cl)=C\c1ccccc1)c1cccs1` as listed: /	/	8	15	0.3	i	19	0.6	-2
`CC(NC(=O)c1ccccc1)C(=O)N/N=C/c1ccco1` (configuration not stated) as listed: /	/	4	6	-2.4	i	4	1.7	/
